UUG fidelity: alters start codon recognition fidelity in yeast; S. cerevisiae UUG-firefly luciferase reporter, luminescence/redox ratio; activity score, % at 18.7 µM; 0.13% of 350,000 active;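 active = replicate mean at a twofold rise or more, about +100% in these data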;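 also: firefly luciferase made from a UUG start codon reports start codon fidelity; reporter light over untreated wells divided by growth signal over untreated wells; some hits fall short of that in this replicate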
MT1-MMP act inh: blocks activation of human MT1-MMP | 0.061% of 360,000 active | GFP/RFP ratio change, % at 20 µM | P50281 | HT1080 RFP-PRO-GFP cells, GFP/RFP ratio fluorescence, overnight; percent of plate control window, DMSO zero;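 active = GFP/RFP ratio change of at least 30% with cell ATP level not reduced by more than half and red fluorescence within 50% of control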; also: strong numbers were not always called active
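Assay system: HT1080 RFP-PRO-GFP cells. Benchmarks: DMSO vehicle wells and RFP-L50D-GFP reporter cell wells. Times: overnight cell settling, then overnight compound exposure, 37 °C, 5% CO2. Compound: 20 µM single dose, 1% DMSO. Read-out basis: GFP/RFP fluorescence ratio.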
MT1-MMP act inh RFP: recorded beside MT1-MMP act inh, whose call it bears; RFP signal change, %; measured here: RFP expression control read;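 0 = vehicle wells; hits needed this value within 50% of zero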
Active calls of the source: *; & = joins results of further samples. Some of the compounds tested (hit frequency here may not be typical).

SMILES	UUG fidelity	MT1-MMP act inh	MT1-MMP act inh RFP
COc1ccc(C2(C)NC(=O)N(CC(=O)c3cc(C)n(C4CC4)c3C)C2=O)cc1OC (stereo unspecified)	-4	1	1
CCOC(=O)C1=C(COC(=O)C(C)(C)Oc2ccc(Cl)cc2)NC(=O)NC1C (stereo unspecified)	-8	3	2
COc1ccc(/C=C/C(=O)OCC(=O)NC2CCCCC2C)c(OC)c1 (stereo unspecified)	0	4	4
O=C(COC(=O)c1cccs1)Nc1cccc(Cl)c1	-1	-1	5
O=C(Cn1cc([N+](=O)[O-])ccc1=O)NCC1COc2ccccc2O1 (stereo unspecified)	-2	-1	2
CC(=O)Nc1cccc(C(=O)OCC(=O)NC2CCCCCCC2)c1	-18	5	2
CCCc1cc(=O)oc2cc(OCC(=O)N3CC[C@@]4(O)CCCC[C@H]4C3)ccc12	1	-2	-1
CC(=O)c1cccc(NC(=O)c2cccc3c(-c4cnn(C)c4)coc23)c1	-6	3	-5
Nc1c(N(Cc2ccco2)C(=O)c2cccc(F)c2)c(=O)[nH]c(=O)n1Cc1ccccc1	56	-5	3
CCc1cc2c(SCC(=O)NCC3CCCO3)ncnc2s1 (stereo unspecified)	-3	-3	-1
CC1(NC(=O)CCNC(=O)c2ccc(C(C)(C)C)cc2)CCS(=O)(=O)C1 (stereo unspecified)	-15	-4	2
O[C@H]1C[C@H](c2ccccc2)N(Cc2cccs2)C[C@@H]1n1cc(-c2ccc(F)cc2)nn1	-9	0	-5
CCCCNC(=O)C1(C)CCCCN1C(=O)c1csnn1 (stereo unspecified)	-14	6	6
O=C(c1ccc(Cl)cc1)N1CCN(S(=O)(=O)/C=C/c2ccccc2)CC1	-15	-4	-11
O=C(OCC(=O)N1CCCC1)c1cc2c(cc1[N+](=O)[O-])OCCO2	5	0	2
O=C(Nc1cccc(Cl)c1)c1nc[nH]c1C(=O)Nc1ccccc1F	5	5	4
CC(=O)Nc1ccc(NC(=O)CSc2nnc(C3CC3)n2-c2ccccc2)cc1	0	0	3
CCc1ccc2c(CC(=O)Nc3cccc(S(=O)(=O)N4CCOCC4)c3)coc2c1	-20	6	-5
CSCCC(NC(=O)c1ccccc1Cl)C(=O)NCC1COc2ccccc2O1 (stereo unspecified)	-5	-8	-1
CN(CC(=O)Nc1ccc(Cl)c(C(F)(F)F)c1)C(=O)c1ccccc1SCC(=O)N1CCCC1	-1	3	-9

Profiles, quoted from the list. Values in the order: UUG fidelity	MT1-MMP act inh	MT1-MMP act inh RFP
`CCc1cc2c(SCC(=O)NCC3CCCO3)ncnc2s1` (stereo unspecified) is listed with -3	-3	-1
`COc1ccc(C2(C)NC(=O)N(CC(=O)c3cc(C)n(C4CC4)c3C)C2=O)cc1OC` (stereo unspecified) is listed with -4	1	1
`CC(=O)c1cccc(NC(=O)c2cccc3c(-c4cnn(C)c4)coc23)c1` is listed with -6	3	-5
`CC(=O)Nc1cccc(C(=O)OCC(=O)NC2CCCCCCC2)c1` is listed with -18	5	2
`CN(CC(=O)Nc1ccc(Cl)c(C(F)(F)F)c1)C(=O)c1ccccc1SCC(=O)N1CCCC1` is listed with -1	3	-9

Next section:
SMILES	UUG fidelity	MT1-MMP act inh	MT1-MMP act inh RFP
CCOC(=O)C1=C(COC(=O)c2ccc([N+](=O)[O-])o2)NC(=O)NC1C (stereo unspecified)	-21	0	2
CCOc1ccc(C(=O)OCC(=O)NCc2ccccc2)cc1OCC	1	5	0
Cc1cc(C)c2c(CN3CCCC3)cc(=O)oc2c1	-6	1	4
Cc1ccc(C)c(N2CCN(C(=O)CCc3nc(-c4cccc(Br)c4)no3)CC2)c1	-9	3	5
CN(CC(=O)Nc1ccc(N2CCOCC2)cc1)C(=O)CSc1ccccc1F	-29	6	5
CCOC(=O)C1=C(COC(=O)CCc2ccc(CC)cc2)NC(=O)NC1C (stereo unspecified)	-15	2	6
Cc1ccc(NC(=O)C(C)Sc2nnc(C)n2C2CC2)cc1S(=O)(=O)N1CCOCC1 (stereo unspecified)	-6	-2	-1
O=C1C2C3C=CC(C3)C2S(=O)(=O)C2C3C=CC(C3)C12 (stereo unspecified)	-13	0	2
CC(O)CNc1nc(N)[nH]c(=O)c1N=Nc1ccccc1 (stereo unspecified)	-15	2	0
O=C(COC(=O)Cc1n[nH]c(=O)c2ccccc12)NNC(=O)c1ccc(Cl)cc1	-4	-1	6
CCCOc1c(Br)cc(C(=O)OCc2cc(=O)n3ccsc3n2)cc1OC	-11	2	-3
CCCCc1ccc(NS(=O)(=O)c2cccc(C(=O)N3CCCN(C)CC3)c2)cc1	-8	4	-1
c1ccc(C2=NC(c3ccccc3)CC2)cc1 (stereo unspecified)	-5	-6	0
Cc1ccc(NC(=O)C2(c3ccccc3)CCCC2)nc1	4	0	-6
O=C(CC1C[C@H](C(=O)N2CCCCC2)[C@@]2(CCc3ccccc3)c3[nH]c4ccccc4c3CCN2C1=O)NCCC1=CCCCC1 (stereo partly specified)	-10	-11	-11
Nc1c(N(Cc2ccco2)C(=O)COc2ccccc2Cl)c(=O)[nH]c(=O)n1Cc1ccccc1	-18	-3	2
Cn1c(CC(=O)NNC(=O)c2cccnc2)nc2ccccc21	-19	1	7
Cc1ccc(NC(=O)C2=NNC(=O)CC2)cc1S(=O)(=O)Nc1ccc(SC(F)F)cc1	12	-3	-13
Nc1nc(N(Cc2ccccc2)Cc2ccccc2)nc(C(F)(F)F)n1	-16	-12	-6
COc1ccc(-c2ccc(C(=O)NCC3CCOCC3)c3occc23)c(C)c1	-4	4	-22

A draw from above in order of SMILES length, smallest number first.
SMILES	UUG fidelity	MT1-MMP act inh	MT1-MMP act inh RFP
CC(O)CNc1nc(N)[nH]c(=O)c1N=Nc1ccccc1 (stereo unspecified)	-15	2	0
Cc1ccc(NC(=O)C(C)Sc2nnc(C)n2C2CC2)cc1S(=O)(=O)N1CCOCC1 (stereo unspecified)	-6	-2	-1
Nc1c(N(Cc2ccco2)C(=O)COc2ccccc2Cl)c(=O)[nH]c(=O)n1Cc1ccccc1	-18	-3	2

Next section:
SMILES	UUG fidelity	MT1-MMP act inh	MT1-MMP act inh RFP
CCOc1ccc(NC(=O)CN(C)C(=O)c2cc([N+](=O)[O-])ccc2Sc2ccccc2)cc1OCC	-2	3	-4
CC(C)=CCC/C(C)=C/CNC(=O)C[C@H]1C[C@H](C(=O)N2CCCCC2)[C@@]2(CCc3ccccc3)c3[nH]c4cc(-c5ccco5)ccc4c3CCN2C1=O	-12	-12	-11
O=C(COC(=O)Cc1ccc(Br)cc1)NCc1ccc2c(c1)OCO2	-15	3	1
CC(OC(=O)c1ccc(Br)o1)C(=O)Nc1ccc2c(c1)OCCO2 (stereo unspecified)	-24	4	3
Cc1n[nH]c2ccc(Br)cc2c1=O	-2	-1	2
CC1CCCCC12NC(=O)N(CC(=O)NCCc1c[nH]c3ccccc13)C2=O (stereo unspecified)	5	1	3
N#Cc1ccccc1NCC(=O)N1CCN(S(=O)(=O)c2ccccc2)CC1	-24	3	2
Cn1cnc(S(=O)(=O)N2CCCCC2c2cc(C(=O)Nc3cccc4c3CCCC4)no2)c1 (stereo unspecified)	5	2	-4
COc1ccc(OCCCC(=O)Nc2cc(S(=O)(=O)N3CCCCC3)ccc2C)cc1	8	5	-8
COc1cc(C(=O)NCC2CCCCC2)ccc1OCc1c(C)noc1C	-13	1	4
O=C(COc1ccccc1Cl)NNC(=O)c1ccc2c(=O)n3c(nc2c1)CCC3	-17	2	2
CC(C)(C)N(Cc1ccccc1)C(=O)COC(=O)c1ccc([N+](=O)[O-])o1	-1	-3	-5
COc1ccc(OC)c(NC(=O)C(C)SCc2nc3sc(C)c(C)c3c(=O)[nH]2)c1 (stereo unspecified)	-9	2	-3
CC1=C(C(=O)N2CCOCC2)CC(CC(=O)NCCCN(C)C)C(=O)N1Cc1ccc(C(C)(C)C)cc1 (stereo unspecified)	-11	3	3
O=C(COc1ccc(CNC[C@H]2O[C@@H](n3ccc(=O)[nH]c3=O)[C@H](O)[C@@H]2O)cc1)Nc1nccs1	-23	2	6
CC(C)=CCOc1c2ccoc2c(OCC=C(C)C)c2oc(=O)ccc12	-17	0	-15
COc1cccc(/C=C2\SC(=S)N(CCCC(=O)Nc3cccc(C(=O)O)c3)C2=O)c1	-35	-6	2
CCC(=O)N(c1nnc(SCC(=O)NN2C(=O)NC3(CCCCC3)C2=O)s1)C1CC1	-23	-2	-4
C=CCN1C(=O)c2ccc(C(=O)OCC(=O)N(CC)c3c(N)n(Cc4ccccc4)c(=O)[nH]c3=O)cc2C1=O	-18	0	3
COCCn1c(SCC(=O)Nc2c(C)n(C)n(-c3ccccc3)c2=O)nnc1-c1ccncc1	-8	0	2
CN(CC(=O)Nc1ccccc1Cl)C(=O)c1cccc(S(=O)(=O)N2CCN(c3ccccc3)CC2)c1	0	-4	-29
CCCCn1c(N)c(N(CCOC)C(=O)CC2CCCCC2)c(=O)[nH]c1=O	-16	2	1
Cn1c(=O)ccc2ccccc21	19	2	4
CCNC(=O)C1(C)CCN(Cc2csc(-c3ccccc3)n2)C1 (stereo unspecified)	-20	-4	0
Cc1cc(OCC(=O)OCC(=O)N2CCc3ccccc32)ccc1Cl	-18	-2	0
CCN1CCN(C(=O)c2ccc(S(=O)(=O)Nc3ccccc3)cc2)CC1	-2	4	4
CC(OC(=O)c1cccnc1Cl)C(=O)NCc1ccccc1 (stereo unspecified)	-16	2	2
COc1ccccc1NC(=O)N(C)C[C@@H]1OCc2cn(nn2)CCCC(=O)N([C@H](C)CO)C[C@H]1C	-9&11	-1	2
Cc1ccc(NC(=O)CSCC(=O)Nc2cc(S(=O)(=O)N3CCOCC3)ccc2OC(C)C)cc1	4	8	0
Cc1cn(CC(=O)N(C)Cc2ccco2)c(=O)[nH]c1=O	-19	0	4
COc1ccc(CN(C)C(=O)Cc2ccc(OC)c(S(=O)(=O)N3CCOCC3)c2)cc1OC	0	1	0
CCOc1ncccc1C(=O)OCC(=O)Nc1ccc(S(=O)(=O)N2CCCC2)cc1	0	-3	-3
CCCCC1CC2=C(C(=O)OC(C)(C)O2)C(c2ccc3ccccc3c2)O1 (stereo unspecified)	7	-1	-6
O=C1c2ccccc2C(=O)N1CCc1c(-c2[nH]c3ccccc3c2CCN2C(=O)c3ccccc3C2=O)[nH]c2ccccc12	-17	4	3
CCCN(CC(=O)Nc1ccccc1C)C(=O)Cc1c(C)nc2ccccc2c1C	-14	-1	3
COc1cccc(-c2cnc(C(O)c3ccc(F)cc3C)[nH]2)c1 (stereo unspecified)	-2	0	-4
O=C(Oc1cccc2ccccc12)c1ccccc1	-19	8	6
CN(C(=O)COc1ncnc2sccc12)C1CCCCC1	4	5	0
CC(C)[C@H]1COCCS(=O)(=O)N1Cc1ccccc1-c1cccc(Cl)c1	-15	-3	-7
Cc1ccc(S(=O)(=O)N2CCOCC2)cc1C(=O)OCC(=O)NC1CC1	-11	-2	5
COc1ccccc1N(C)S(=O)(=O)c1ccc(Cl)c(C(=O)Nc2ccccc2N2CCOCC2)c1	-5	-6	-9
COc1ccccc1OCCNC(=O)C1CC(=O)N(c2ccccc2OC)C1 (stereo unspecified)	-1	-3	1
COC(=O)c1ccc(C(=O)OC)c(NC(=O)CSc2nc(-c3ccco3)cc(C(F)(F)F)n2)c1	-4	-3	-9
Cc1cccc2nnc(-c3ccccc3)n12	-21	-4	1
O=C(COC(=O)C1CC2CCCC(C1)C2=O)Nc1ccccc1 (stereo unspecified)	-5	1	3
Cc1cc(C(=O)N2CCN(S(=O)(=O)c3ccccc3C#N)CC2)c(C)o1	-9	1	3
O=C(NNC(=O)c1ccccc1Cl)c1ccc2c(=O)n3c(nc2c1)CCC3	-8	0	0
O=c1ccn([C@@H]2O[C@H](CNCc3ccccc3)[C@@H](O)[C@H]2O)c(=O)[nH]1	4	3	4
CC[C@H](C)/C=C(C)/C=C/c1cc2c(cn1)C(=O)[C@@](C)(OC(C)=O)C(O)=C2Cl	1	6	4
CCOc1ccc(NC(=O)OCCN2CCN(CCc3ccccc3)C(C)C2)cc1 (stereo unspecified)	-2	1	-7
O=C([C@@H]1CCCN1C(=O)c1cccs1)N1CCN(S(=O)(=O)c2ccccc2F)CC1	-12	-2	2
Cc1ccc2cccc(OCC(=O)N(C)CC(=O)Nc3ccc(F)cc3)c2n1	-4	1	6
COc1ccccc1N1CC(C(=O)OCc2nc(N)nc(Nc3ccccc3)n2)CC1=O (stereo unspecified)	1	-2	2
O=C(Nc1cc(S(=O)(=O)N2CCOCC2)ccc1N1CCCC1)c1ccc(F)cc1	-25	0	-3
COc1ccc2nc(SC(C)C(=O)NC3(C#N)CCCCC3)[nH]c2c1 (stereo unspecified)	-18	3	-13
CC(Cc1ccccc1)NC(=O)CCNNC(=O)c1ccncc1 (stereo unspecified)	-1	0	4
Cc1c(C(=O)OCC(=O)N(C)Cc2ccc(Cl)cc2)oc2ccccc12	5	3	1
COCCN(CC(=O)Nc1cccc(C)c1C)C(=O)Cc1sc(C)nc1-c1ccc(F)cc1	-21	-2	3
COc1ccccc1C(=O)N1[C@@H](C(C)C)COc2cc(Br)ccc2S1(=O)=O	-14	-7	-6

Five successive records from above:
SMILES	UUG fidelity	MT1-MMP act inh	MT1-MMP act inh RFP
O=C(COC(=O)C1CC2CCCC(C1)C2=O)Nc1ccccc1 (stereo unspecified)	-5	1	3
Cc1cc(C(=O)N2CCN(S(=O)(=O)c3ccccc3C#N)CC2)c(C)o1	-9	1	3
O=C(NNC(=O)c1ccccc1Cl)c1ccc2c(=O)n3c(nc2c1)CCC3	-8	0	0
O=c1ccn([C@@H]2O[C@H](CNCc3ccccc3)[C@@H](O)[C@H]2O)c(=O)[nH]1	4	3	4
CC[C@H](C)/C=C(C)/C=C/c1cc2c(cn1)C(=O)[C@@](C)(OC(C)=O)C(O)=C2Cl	1	6	4
